# LT uptake inh = inhibitors of anthrax lethal toxin internalization. Cells, anthrax lethal toxin internalization, FRET ratio (460/530). Potency, µM (titrated, usually from 40 µM), inactives show at the highest dose activity change, negative = inhibition, hits mostly inhibitors. 0.67% of 70,000 active; active = well fitted falling ratio curve with the 530 nm signal flat; inconclusive = other ratio curves, or a change in one channel alone; inactive = flat curves in the ratio and both channels; the % refers to the ratio; also: % is scaled to controls: 0 for no effect and ±100 for the full control effect; nearly all actives have a fitted effect of over 50% in size; tested in ME-180 cells; beta-lactamase reporter
# Prx2 Sm inh = Schistosoma mansoni Prx2 inhibition | S. mansoni Prx2 activity coupled to TGR/GSH (TGR is thioredoxin glutathione reductase), NADPH fluorescence loss, qHTS; some inactives read as strong as hits | Potency, µM | 0.07% of 65,000 active; active means full or partial inhibition curve with a strong effect at the top dose; inconclusive means weaker partial or single-point curve; inactive means no accepted curve; also: series up to 57 µM; many of its hits are not listed in these tables
#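 Prx2 activity was followed as the loss of NADPH fluorescence (ex 365/em 450 nm), read every 30 sec for 8 min after H2O2 start. The enzyme mix (50 nM Prx2, 25 nM TGR, GSH, NADPH; pH 7.4 phosphate buffer) was incubated with compound for 15 min at room temperature first.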
# * hit, by the source's call; ? = inconclusive; / = no result given; & = joins results of further samples; [ ] = another dose, or the depositor's remark. Potency is read from the fitted curve at half-maximal effect.
SMILES,LT uptake inh,Prx2 Sm inh
CCOc1ccc2nc(N3CCC(C(=O)N4CCN(c5ncccn5)CC4)CC3)sc2c1,-10.9%,>57
CCOC(=O)CCSCC(=O)Nc1nnc(C)s1,9.8%,>57
Cn1c(-c2ccccc2)cc(=O)c2ccccc21,-6.6%,/
Cc1ccc(S(=O)(=O)N2CCN(C(=O)CSC3CCCC3)CC2)c(C)c1,3.9%,>57
C/C(CCC(=O)OC[C@@H]1O[C@H](C#Cc2ccccc2)C=C[C@@H]1Oc1ccc(C)cc1)=N/OC[C@@H](O)COCc1ccco1,?,/
CCOC(=O)c1cnc(SCC(=O)Nc2nc(C)c(C)s2)nc1N,2.8%,>57
O=C(O)C[O][Sb][O]CC(=O)O,-3.3%[8 µM],>57
O=C(COc1ccccc1)Nc1ccc2c(c1)nc1n2CCOC1,?,>57
O=c1c2c3nc4ccccc4nc3n(-c3ccc4c(c3)OCCO4)c2ncn1CC1CCCO1 (configuration not stated),?,>57
O=C(O)c1ccc(C(=O)c2ccccc2C(=O)O)cc1C(=O)O,-7.1%[8 µM],>57
c1csc(CNc2ncnc3sccc23)c1,13.5%,>57
Cc1cccc(NS(=O)(=O)c2ccc(C)c(C(=O)OCC(=O)Nc3cc(C)on3)c2)c1,?,>57
Nc1nc2n(n1)C(c1ccccc1)CC(c1ccc(F)cc1)N2 (configuration not stated),-1.4%,>57
COc1ccc(-c2nnc(SCC(=O)Nc3cc(C)on3)n2N)cc1OC,-3.5%,>57
CN(C)CCN1C(=O)C(=O)/C(=C(/O)c2ccc(F)cc2)C1c1ccccc1 (configuration not stated),-1.1%,>57
CN(C)[C@@H]1C(=O)C(C(N)=O)=C(O)[C@]2(O)C(=O)C3=C(O)c4c(O)cccc4[C@](C)(O)[C@H]3C[C@@H]12,-12.5%[8 µM],>57
CC(C)COP(=O)(c1ccc(N(C)C)cc1)C(O)c1ccccn1 (configuration not stated),-18.8%,>57
O=C(O)c1cc([N+](=O)[O-])ccc1NCCCc1ccccc1,0.0%&7.6%,>57&>57
COC(=O)[C@@H]1C[C@H]1[C@@H](NC(=O)c1ccc(Br)cc1)c1ccccc1,-16.4%,/
CCOc1ccc(Cl)cc1S(=O)(=O)N1CCN(c2ccc(F)cc2)CC1,-22.5%,>57
O=C(CSc1nnc(-c2cccs2)n1-c1ccccc1)NCc1ccc2c(c1)OCO2,?,>57
CC1CCCN(c2nc3c(c(=O)[nH]c(=O)n3C)n2CCCc2ccccc2)C1 (configuration not stated),?,>57
Cc1noc(C)c1C(=O)Nc1ccccc1-c1ccccc1,-4.8%,>57
Cc1ccc2c(c1)CCCN2C(=O)c1ccncc1,10.5%,>57
CCN(CC)S(=O)(=O)c1ccc2nc(CSc3nnnn3-c3ccc(O)cc3)[nH]c2c1,9.3%,>57
COc1ccc(C)cc1S(=O)(=O)N(C)CC(=O)NCc1ccco1,4.3%,>57
COc1ccc(Cn2nnnc2C(c2cc3cccc(C)c3[nH]c2=O)N2CCOCC2)cc1 (configuration not stated),1.0%,>57
O=C(Nc1ccc(S(=O)(=O)NC2CCCC2)cc1)c1cnccn1,0.2%,>57
O=C(Nc1cnn(Cc2ccccc2)c1)c1cc2nc(-c3ccco3)cc(C(F)(F)F)n2n1,?,>57
O=C(Nc1ccccc1OC(=O)N1CCOCC1)N1CCOCC1,10.9%,>57
CC1(C)CNC(=O)CC(C)(C)N1O,-5.7%,/
COC(=O)c1cc(COc2cc(C)cc3oc(=O)c4c(c23)CCC4)c(C)o1,-2.8%,/
Cc1ccc(OCC(=O)Nc2ccc(-c3nc4ncccc4o3)cc2)c(C)c1,1.8%,>57
CCOCC(=O)N1CCCC(C(=O)OCC)C1 (configuration not stated),-18.4%,?
CCOC(=O)c1c(C)c(C(=O)NCCOC)c(C)n1CC,-2.9%,>57
Cc1ccc2cc(-c3noc(C(C)(C)C)n3)c(=O)[nH]c2c1,-4.8%,>57
CCOC(=O)N1CCN(C(=O)CSc2nnc(-c3cccc(OC)c3)o2)CC1,5.1%,>57
CCOc1cc(C#N)c(NC(=O)Cn2nnc3ccccc32)cc1OCC,0.0%,>57
O=C(CN1CCNCC1)Nc1ccccc1Cl,-5.3%,>57
Cc1csc(SCc2nnc(-c3ccccc3Br)o2)n1,5.2%,>57
COc1ccccc1NC(=O)CSc1nnc(-c2ccoc2C)n1CCc1ccccc1,2.8%,>57
COc1ccc(-c2ccc(C(=S)N3CCN(C(C)=O)CC3)o2)cc1,-11.1%,>57
COc1ccccc1-c1nnc2sc(-c3cc4ccccc4o3)nn12,?,>57
Cc1ccccc1Nc1nc(N)nc(CN(C)c2ccccc2)n1,-20.2%,>57
CC(C)c1cccc2cc3c(nc12)-c1cccc(=O)n1C3,-16.3%,>57
O=C(CSc1nc(-c2ccccc2)cc(C(F)(F)F)n1)NCCN1CCOCC1,/,>57
CCS(=O)(=O)N1CCN(C(=O)c2cccnc2)CC1,8.7%,/
CCCC(C(=O)c1ccccc1)n1cncn1 (configuration not stated),1.0%,>57
Cn1c(SCc2ccc(C#N)cc2Cl)nc2ccccc21,?,/
CCn1c(=NC(=O)CSCC(=O)Nc2nccs2)sc2ccccc21,5.8%,>57

# Continued.
SMILES,LT uptake inh,Prx2 Sm inh
Cc1ccc(S(=O)(=O)c2c(C)nn(C(C)(C)C)c2OC(=O)C2CCCC2)cc1,-13.4%,>57
COc1nc(Oc2ccc(=O)[nH]n2)nc(N2CCOCC2)n1,2.0%,>57
Cc1ccccc1-n1c(=O)cc(N2CCN(Cc3ccccc3)CC2)[nH]c1=O,11.6%,>57
COc1ccc(-n2nnnc2SCC#CCO)cc1,7.1%,>57
CCOC(=O)C1CCCN(c2c(NCC3CCCO3)c(=O)c2=O)C1 (configuration not stated),-6.0%,>57
COc1ccc(CNc2ncnc3ccc(-c4ccoc4)cc23)c(OC)c1,-13.3%,>57
Cc1ccc(C(=O)N2CCCCCC2)cc1Br,-11.4%,>57
O=c1c2ccccc2c(/C=N/n2cnnc2)c(O)n1-c1ccccc1F,?,>57
O=C(Nc1ccc(S(=O)(=O)NCCc2ccccc2)cc1)c1ccco1,-23.4%,>57
O=C(CN(c1ccc(Cl)c(C(F)(F)F)c1)S(=O)(=O)c1ccccc1)N1CCOCC1,-17.6%,/
Cc1ccc(S(=O)(=O)N2CCCCC2C(=O)N2CCN(Cc3ccccc3)CC2)cc1 (configuration not stated),-30.1%,>57
Cn1nc(-c2ccc(Cl)cc2)c2cc(C(=O)N3CCOCC3)sc21,28.0%,>57
COc1cccc(-n2nnc3c(=O)n(CC(=O)N4CCC(C)CC4)cnc32)c1,0.3%,>57
CCCCN(C)CCn1c(=S)[nH]c2ccc(N3CCOCC3)cc2c1=O,-13.0%,>57
O=C1CSC(=S)N1CC1CCCO1 (configuration not stated),-10.5%,>57
CCn1c(CNc2ccc(F)cc2)nnc1SCC(=O)N1CCCc2ccccc21,?,>57
Cc1cc(C)cc(-n2nnc(C(=O)NCc3ccccc3)c2N)c1,-16.9%,>57
CCc1nnc(NC(=O)CSc2nnc(-c3cccnc3)n2CCc2ccccc2)s1,10.4%,>57
Cn1c(=O)[nH]c(=O)c2c1nc(NC1CCCCC1)n2Cc1ccccc1,0.7%,>57
Cc1cccn2c(=O)c3cc(C(=O)N4CCN(c5ccccc5)CC4)n(C)c3nc12,6.0%,>57
CCn1c(CSc2nnc3ccccn23)nc2cc(C(=O)O)ccc21,-10.6%,>57
O=C(NCCN1CCOCC1)c1ccc(Cl)c(S(=O)(=O)N2CCCCCC2)c1,19.8%,>57
c1ccc(C[n+]2cccc(-c3cc4ccccc4[nH]3)c2)cc1,-2.7%[8 µM],>57
CCCC(=O)Cl,6.3%,/
CC/C(=C\C(=O)c1ccncc1)Nc1ccc(O)cc1,-6.7%,>57
CNc1ncnc2ccc(-c3ccccc3OC)cc12,?,>57
C=CCOC(=O)/C=C/NC(=O)/C=C/C=C/CCCCCCCC(C)O (configuration not stated),-25.6%&-24.4%[8 µM],/
Cc1ccc(C)c(Oc2nnnn2-c2ccccc2)c1,-8.9%,>57
Cc1ccc(SCCNS(=O)(=O)c2ccc(F)cc2)cc1,-27.6%,>57
CCCS(=O)(=O)n1nc(-c2ccc(Br)cc2)cc1N,-16.8%,>57
NS(=O)(=O)c1ccc(NCc2nc3ccccc3[nH]2)cc1,-2.9%[8 µM],>57
COc1ccc(C)cc1NC(=O)c1cnc2sccn2c1=O,0.5%,>57
CN(C)c1nc(Oc2ccc(=O)n(-c3ccccc3)n2)nc(N2CCOCC2)n1,1.9%,>57
Cc1cc(C(=O)CSCc2nnc3n(CCC(C)C)c(=O)c4ccccc4n23)c(C)n1C,0.0%,>57
Cc1nc2n(n1)C(c1ccccc1)C1=C(CC(c3ccco3)CC1=O)N2 (configuration not stated),?,>57
O=C(CCn1c(=O)[nH]c2ccsc2c1=O)N1CC(=O)N(CCc2ccccc2)C(=O)C1,9.3%,>57
O=P(O)(c1ccc(Cl)cc1)c1ccc(Cl)cc1,-8.9%,/
Cc1c(-c2nn(C)c(=O)c3ccccc23)oc2ccc(F)cc2c1=O,9.4%,>57
Oc1c(I)cc(Cl)c2cccnc12,?,>57
Cc1cc(C)cc(N2C(=O)C3CC=CCC3C2=O)c1 (configuration not stated),-12.4%,>57
CCN1CCN(Cc2nc3c(c(=O)n(C)c(=O)n3C)n2Cc2ccc(Cl)cc2Cl)CC1,?,>57
COc1ccc(OC)c(C2SCCN2S(=O)(=O)c2cccc(C(F)(F)F)c2)c1 (configuration not stated),?,>57
COCCN1C(=O)c2oc3ccccc3c(=O)c2C1c1ccc(C(=O)OC)cc1 (configuration not stated),4.1%,>57
CC(=O)Oc1ccc(-c2nc(-c3cccnc3)no2)cc1,?,>57
O=C(Nc1ccc2c(c1)oc1ccccc12)c1ccc(Br)o1,?,>57
Cc1ccc(Cn2c(NCCCn3ccnc3)nc3c2c(=O)n(C)c(=O)n3C)cc1,-7.2%,>57
N#Cc1c(NC(=O)CSc2nnc(-c3ccccc3O)n2-c2ccccc2)sc2c1CCCC2,-1.2%,>57
c1cc2c3c(c1)c1c(n3CCNC2)CCCC1,?,>25.6
COc1ccc(C(=O)NCc2nnc(SCC(=O)N3CCc4ccccc43)o2)cc1OC,7.1%,>57
CCC(=O)Oc1ccc(C2N(C(=O)CC)CCN2S(=O)(=O)c2ccc(C)cc2)cc1OC (configuration not stated),-2.9%,>57

# Next part
SMILES,LT uptake inh,Prx2 Sm inh
Cn1c(=O)[nH]c(=O)c2c1nc(Br)n2CC(O)COCc1ccccc1 (configuration not stated),-4.9%,>57
CC(=O)NC(=S)c1c(N)n(Cc2ccccc2)c(=O)n(C)c1=O,27.6%,>57
CCOC(=O)c1ccoc1CSCC(=O)N1CCN(S(=O)(=O)c2ccc(C)cc2)CC1,?,>57
CCC(=O)c1cc(F)c(N2CCN(C(=O)c3ccco3)CC2)cc1C,-12.3%,>57
CN(C)C[C@H]1CCC2=C(C1=O)C(c1ccc(Cl)c(Cl)c1)C1=C(CC[C@H](CN(C)C)C1=O)O2,14.5%[8 µM],>57
Cc1cc(C)n(-c2nc3c(c(=O)n(C)c(=O)n3C)n2C)n1,-9.3%,>57
Cc1oc(-c2ccccc2F)nc1CS(=O)(=O)CC(=O)N1CCc2ccccc21,-9.7%,>57
CC1CCN(C(=O)CSc2ccc3nnc(-c4ccccc4)n3n2)CC1,-7.1%,>57
COc1ccccc1NC(=O)CSc1nnc(-c2ccc(C)cc2)o1,-9.0%,>57
Cn1cccc1C(=O)N1CCC2(CCN(Cc3ccccc3)CC2)CC1,13.6%,>57
CO[C@@H]1COC(=O)[C@@H](C)COC(=O)[C@@H](C)NC(=O)C/C=C\[C@@H]1C,8.0%[8 µM],/
CC1CCN(S(=O)(=O)c2cccc(C(=O)Nc3nccs3)c2)CC1,-3.4%,>57
COc1nnc(-c2ccc(N3CCOCC3)c(NC(C)=O)c2)c2ccccc12,12.4%,>57
CC(C)NC(=O)N1CC[C@@]2(CCCN(C(=O)c3csnn3)C2)C1,?,?
CCn1c(CCNC(=O)c2ccc(OC)c(OC)c2)nc2ccccc21,9.9%,>57
CC(C)C[C@@H](CC(=O)N[C@@H](CCC(=O)O)CC(=O)O)NC(=O)[C@@H]1CNCC[C@H]1NC(=O)C[C@@H](NC(=O)C[C@H](Cc1c[nH]c2ccccc12)NC(=O)[C@@H]1CCCC[C@H]1N)C(C)C,-5.4%,>25.6
COc1ccc(S(=O)(=O)N(C)CC(=O)N2CCC(C)CC2)cc1Cl,-1.0%,>57
CC(C)C(=O)Nc1cccc2nsnc12,?,>57
C=CCC(Nc1ccco1)c1ccccc1 (configuration not stated),?,>57

# Source: PubChem (National Center for Advancing Translational Sciences (NCATS))

# This is a subset, so the mix of outcomes need not match the whole.
